From PubChem BioAssay
HNF4A DNA FP: change in binding of human HNF4 alpha to DNA | P41235 | HNF4a-FITC DNA binding, fluorescence polarization, 1 h | activity change, % at 10 µM | 0.3% of 360,000 active; in the data active = activity change above about 30%, passing the limit was not always enough;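 note: controls were the assay level and a saturating level of protein; the project sought stronger binding though the title names inhibitors; some compounds called inactive have numbers as strong as hits; positive values seem to mean higher polarization but the record does not say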
Target sequence (P41235 whole entry, looked up): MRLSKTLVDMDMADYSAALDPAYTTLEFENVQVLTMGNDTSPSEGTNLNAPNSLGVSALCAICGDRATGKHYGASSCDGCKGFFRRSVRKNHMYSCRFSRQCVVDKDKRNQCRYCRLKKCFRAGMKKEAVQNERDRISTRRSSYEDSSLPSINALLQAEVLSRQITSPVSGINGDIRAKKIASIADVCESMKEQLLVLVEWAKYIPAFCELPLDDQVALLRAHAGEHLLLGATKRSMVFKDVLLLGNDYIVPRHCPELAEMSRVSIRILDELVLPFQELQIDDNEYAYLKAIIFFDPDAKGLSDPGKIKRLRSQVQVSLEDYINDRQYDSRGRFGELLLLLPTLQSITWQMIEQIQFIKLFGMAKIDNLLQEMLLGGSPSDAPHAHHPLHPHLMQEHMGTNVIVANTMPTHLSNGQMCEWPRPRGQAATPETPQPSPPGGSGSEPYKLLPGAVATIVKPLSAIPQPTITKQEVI
MLL AF4-AF9 inh: inhibitors of human MLL-AF4/AF9 interaction; 0.47% of 350,000 active; inhibition, % at 10 µM; P42568; AID 651704; AlphaScreen, biotin-AF4 peptide binding to FLAG-AF9;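 active = every replicate reaching a set inhibition limit, whatever the replicate mean, cut at about 25% in these data; inconclusive = mean inhibition reaches that limit but some replicates miss it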;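 note: 0% = plate neutral control median and 100% = total signal loss; the record names both 10 and 1 µM as test concentration; the first replicate is given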
Target sequence (P42568 whole entry, looked up): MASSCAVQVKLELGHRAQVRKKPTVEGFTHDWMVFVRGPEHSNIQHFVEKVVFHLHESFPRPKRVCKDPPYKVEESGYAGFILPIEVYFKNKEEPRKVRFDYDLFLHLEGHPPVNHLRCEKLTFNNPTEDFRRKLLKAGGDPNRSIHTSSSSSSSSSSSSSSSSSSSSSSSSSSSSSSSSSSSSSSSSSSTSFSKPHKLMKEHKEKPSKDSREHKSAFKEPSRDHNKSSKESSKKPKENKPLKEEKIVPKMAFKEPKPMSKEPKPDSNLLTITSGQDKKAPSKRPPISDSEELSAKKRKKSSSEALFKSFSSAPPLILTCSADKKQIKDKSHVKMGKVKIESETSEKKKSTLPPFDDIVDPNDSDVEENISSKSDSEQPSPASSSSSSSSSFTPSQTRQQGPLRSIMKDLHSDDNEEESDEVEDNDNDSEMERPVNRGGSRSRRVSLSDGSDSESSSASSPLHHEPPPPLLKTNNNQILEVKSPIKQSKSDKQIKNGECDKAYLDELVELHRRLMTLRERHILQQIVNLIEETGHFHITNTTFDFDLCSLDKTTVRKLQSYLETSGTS
Vif TR-FRET: HIV-1 Vif–A3G interaction blockers – biochemical, TR-FRET, GST-Vif 1-94, biotin-A3G peptide, dose response retest, primary screen (AID 1117319); TR-FRET GST-Vif / biotin-A3G peptide binding; higher % means a stronger effect; test concentration not given here; strong numbers were not always called active; inhibition, %, or IC50 in µM where a hit was titrated; 0.57% of 260,000 active;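 active = above the screen mean plus three standard deviations and confirmed in dose response; inconclusive = results disagree or hit not tested in dose response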;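 note: Vif residues 1-94 fused to GST binding biotinylated APOBEC3G peptide 110-148; 0% = full assay without inhibitor and 100% = GST in place of GST-Vif; retest series ran down from 100 µM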
ALR H2O2 inh: blocks human ALR sulfhydryl oxidase activity; P55789; purified ALR, DTT oxidation, H2O2 HRP-luminol luminescence; inhibition, % (no concentration beside the values); 3.8% of 290,000 active;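 active = mean and each replicate at 75% or more; inconclusive = only one of the two met; inactive = neither met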;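 note: stock transfer was 7.5 nL into about 7.5 µL; 0% = neutral wells and 100% = wells with inactivated enzyme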
Ecoli growth: inhibitors of Escherichia coli growth | OD600 absorbance (test concentration not listed) | OD600, 23 h; hits give low values | 0.21% of 330,000 active | AID 1053175;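 active = OD600 absorbance below the run mean of sample wells minus 3.6 SD, in any replicate, cut at about 0.56 in these data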;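 note: stock transfer was 300 nL into about 60 µL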
FGF22 binding: FGF22 (human) thermal shift binding; Q9HCT0; recombinant FGF22 thermal shift, SYPRO orange fluorescence; percent of sucrose octasulfate shift, DMSO zero; calls only at 9.99 µM; 1.5% of 340,000 active; AID 651658;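 active = melting point raised past a set limit in the mean and every replicate; inconclusive = no clear call; three in four hits are not shown here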
rRNA inh HTS: selective bacterial rRNA inhibition in E. coli; E. coli WT GFP vs humanized-ribosome RFP mutants, fluorescence, 24 h; hits give low values; DMSO median 0, no signal -100; GFP signal change (wild-type ribosome), % (test concentration not listed); 1.6% of 350,000 active; AID 720706;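 active = significant combined selectivity score with lowered wild-type GFP, culture density cut under 30%, mutant RFP and density less affected; inactive = any of these conditions unmet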; note: one replicate is shown; some compounds called inactive have numbers as strong as hits
rRNA inh HTS OD600: second read-out of rRNA inh HTS, no call of its own (marks repeat the call); OD600 change, %; measured here: OD600 growth;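 optical density of the mix in the first replicate; 0 = DMSO median and -100 = no signal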
rRNA inh HTS RFP: second read-out of rRNA inh HTS, no call of its own (marks repeat the call); RFP signal change, %; measured here: RFP humanized mutant strains;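 first replicate; 0 = DMSO median and -100 = no signal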
Active calls of the source: *; i = inactive; ? = inconclusive; / = not tested or not shown. Only part of the results is shown, so the mix of outcomes need not match the whole.

HNF4A DNA FP	MLL AF4-AF9 inh	Vif TR-FRET	ALR H2O2 inh	Ecoli growth	FGF22 binding	rRNA inh HTS	rRNA inh HTS OD600	rRNA inh HTS RFP	Compound
-1.9	49.8*	/	40.4	0.631	i	-1.9	2.6	12.2	CCN1C(=O)C2(SC(NC(C)=O)=NN2C(C)=O)c2cc(C)cc(C)c21 (centres undefined)
2.1	-1.2	-2.8%	-3.8	0.699	i	2.9	1.1	-1.4	O=C(Nc1ccc(F)cc1)c1cccc(N2C(=O)C3C4C=CC(C4)C3C2=O)c1 (centres undefined)
1.7	/	5.3%	97.5*	0.643	/	/	/	/	Cc1c(CCC(=O)O)c(=O)oc2cc3occ(-c4ccc(F)cc4)c3cc12
2.2	3.2	-4.8%	9.2	0.707	i	12.5	11.8	1.8	Cc1ccc(F)cc1NC(=O)/C=C/c1ccc(S(=O)(=O)N2CCOCC2)cc1
/	-0.8	/	/	/	i	3.7	9.1	-2.8	C[C@@H]1CN([C@@H](C)CO)C(=O)c2cc(C3=CCCCC3)cnc2O[C@H]1CN(C)CC1CCOCC1
-1.2	-1.6	/	-8.8	0.664	i	16.8	12.3	-1.2	COc1ccc(OC)c2c(=O)cc(C(=O)O)[nH]c12
1.8	-1.6	-3.8%	/	0.682	i	8.1	4.1	1.4	O=C(NCC(c1ccco1)N1CCCC1)c1cn(-c2ccccc2)nc1-c1ccc(F)cc1 (centres undefined)
2.9	-5.0	/	10.1	0.672	i	11.2	14.6	2.5	Cc1cc(C)c2c(N)c(C(=O)Nc3ccccc3Cl)sc2n1

Following part.
HNF4A DNA FP	MLL AF4-AF9 inh	Vif TR-FRET	ALR H2O2 inh	Ecoli growth	FGF22 binding	rRNA inh HTS	rRNA inh HTS OD600	rRNA inh HTS RFP	Compound
-2.4	0.6	27.5%	-18.8	/	i	-16.9	-14.8	0.7	CC(NS(=O)(=O)/C=C/c1ccccc1)c1ccccc1 (centres undefined)
/	0.3	/	/	/	i	0.9	-7.6	5.4	C[C@@H]1CN([C@@H](C)CO)C(=O)Cc2cc(NC(=O)Nc3ccc(C(F)(F)F)cc3)ccc2O[C@@H]1CN(C)C(=O)NC1CCCCC1
8.6	1.7	2.8%	-4.2	0.691	i	0.4	4.1	1.0	CC(=O)c1c(C)[nH]c(C(=O)CSc2ncnc3sc(-c4ccccc4)cc23)c1C
1.1	0.6	/	/	/	i	5.0	8.9	-0.3	O=C(Nc1ccc2c(c1)OCO2)C1Cc2c(-c3ccncc3)ccnc2O1 (centres undefined)
-0.6	-0.9	/	2.0	0.671	i	-26.5	-38.1	-7.9	Cc1ccc(NC(=S)N2CCC(NC(=O)c3ccccc3)CC2)cc1
-0.2	/	3.5%	-3.7	0.738	/	/	/	/	COC(=O)c1nc(NC2=NCCCCC2)n[nH]1
1.9	0.6	-8.2%	-6.2	0.66	i	0.1	12.4	4.4	COc1ccc(C2C(C(=O)OC3CCCCC3)=C(C)Nc3nnnn32)c(OC)c1OC (centres undefined)
-3.1	/	-1.6%	-4.0	0.766	/	/	/	/	CS(=O)(=O)N(CC(=O)N1CCN(c2cccc(Cl)c2)CC1)C1CCCCC1

Following part.
HNF4A DNA FP	MLL AF4-AF9 inh	Vif TR-FRET	ALR H2O2 inh	Ecoli growth	FGF22 binding	rRNA inh HTS	rRNA inh HTS OD600	rRNA inh HTS RFP	Compound
-1.4	/	16.1%	-2.9	0.653	/	/	/	/	O=S(=O)(c1ccccc1)n1c(C(O)c2ccccn2)cc2ccccc21 (centres undefined)
4.3	/	?	/	0.752	/	/	/	/	CC(C)CNS(=O)(=O)c1ccc(OCC(=O)NCC2CCCO2)c(Cl)c1 (centres undefined)
4.8	-0.9	-11.0%	-1.2	0.71	i	10.8	12.5	-3.1	O=C(CSc1nnc(NC2CCCCC2)s1)N1CCOCC1
0.2	-5.8	19.7%	-5.1	0.654	i	8.1	0.5	0.6	COc1cccc(NC(=O)Cn2c(=O)oc3cc(S(=O)(=O)N4CCCC4)ccc32)c1
/	-4.6	/	/	/	i	1.2	6.2	-0.4	Cc1noc(C)c1NC(=O)Nc1ccc2c(c1)C(=O)N([C@@H](C)CO)C[C@@H](C)[C@H](CN(C)C(=O)Nc1cccc3ccccc13)O2
1.1	-1.5	/	/	0.69	i	-5.2	-0.7	-1.7	CCCc1cc(N2CCC(C(N)=O)CC2)nc(-c2ccccc2)n1
5.7	0.1	/	/	/	i	-27.4*	-21.9*	0.2*	Nc1[nH]c(C(=O)c2ccccc2)c(-c2ccccc2Cl)c1C(=O)c1ccccc1
0.7	/	-1.4%	-1.0	0.748	/	/	/	/	Cc1ccc(C2(c3ccc(C)cc3)NC(=O)N(Cc3c(C)noc3C)C2=O)cc1

Next entries follow:
HNF4A DNA FP	MLL AF4-AF9 inh	Vif TR-FRET	ALR H2O2 inh	Ecoli growth	FGF22 binding	rRNA inh HTS	rRNA inh HTS OD600	rRNA inh HTS RFP	Compound
0.8	/	5.5%	/	0.674	/	/	/	/	CCOC(=O)C1CCCN(S(=O)(=O)c2ccc(F)c(C(=O)Nc3ccc(F)c(F)c3)c2)C1 (centres undefined)
1.0	-1.5	-6.1%	-0.5	0.628	/	14.6	5.6	0.6	CCNS(=O)(=O)c1ccc(NC(=O)Cn2cc([N+](=O)[O-])cn2)cc1
-1.3	3.2	-4.0%	0.8	0.644	i	/	/	/	CCOC(=O)N1CCN(CC(O)COc2cc(C)ccc2C(C)C)CC1 (centres undefined)
3.1	?	3.0%	49.1	0.636	i	-22.5*	-12.7*	8.5*	CNC(=S)N(CCc1c(C)[nH]c2ccc(OC)cc12)Cc1ccco1
11.3	-2.1	-14.0%	53.9	0.668	i	-19.9	-16.2	5.8	Nc1nc(-c2ccc(Oc3ccccc3)cc2)c(CC(=O)O)s1
-0.8	-9.5	/	2.3	0.705	i	6.2	14.9	2.9	Cc1cc(C)cc(-n2ncc3c2CCCC3NC(=O)C2CCC2)c1 (centres undefined)
/	-0.9	/	/	/	i	2.1	-3.0	-1.1	COc1ccc(NC(=O)N(C)C[C@@H]2Oc3c(NC(=O)c4cc(C)nn4C)cccc3C(=O)N([C@@H](C)CO)C[C@H]2C)cc1
1.9	-1.9	-0.7%	-3.6	0.659	i	1.9	8.7	3.4	CCCN(CC(=O)Nc1ccccc1OC)C(=O)Cn1[nH]c(=O)c2ccccc2c1=O

(next part)
HNF4A DNA FP	MLL AF4-AF9 inh	Vif TR-FRET	ALR H2O2 inh	Ecoli growth	FGF22 binding	rRNA inh HTS	rRNA inh HTS OD600	rRNA inh HTS RFP	Compound
-6.1	-2.2	/	/	/	i	/	/	/	O=C(Nc1ccc(Cl)cc1)c1ccc2sc([C@@H]3O[C@H](CO)[C@H](O)[C@H](O)[C@H]3O)nc2c1
0.8	-0.2	-46.1%	30.8	0.691	i	-2.3	-3.6	5.0	COc1cccc(CNC(=O)CSc2ccc(-c3cccs3)nn2)c1
-0.8	-2.8	/	-0.4	/	i	12.0	13.7	-1.1	CCOc1ccc(C(=O)COC(=O)c2cccc(-n3cnnn3)c2)cc1
-5.3	-0.9	/	/	/	i	15.2	17.2	0.5	O=C(O)C(c1ccccc1)C1(O)CC2CCC1C2 (centres undefined)
/	1.2	/	/	/	i	-0.7	2.1	0.2	COc1cccc(S(=O)(=O)N[C@@H]2CC[C@H](CC(=O)NC3Cc4ccccc4C3)O[C@@H]2CO)c1
-1.5	-3.6	-2.3%	/	/	i	-9.5	-1.1	5.9	CN(Cc1ccccc1)C(=O)c1cccc(NC(=O)Cc2ccc(NC(=O)C3CCCN(C(=O)C4CCC4)C3)cc2)c1 (centres undefined)
3.3	-3.1	/	-7.0	0.656	i	2.1	-2.8	1.9	COc1ccc(OC)c(NC(=O)C(C)N2c3cccc4cccc(c34)S2(=O)=O)c1 (centres undefined)
2.2	-0.8	-6.3%	-28.3	0.737	i	17.8	0.0	-0.5	CCN(CC(=O)NC(C)C)C(=O)Cc1ccc(C)c(C)c1

(listing goes on)
HNF4A DNA FP	MLL AF4-AF9 inh	Vif TR-FRET	ALR H2O2 inh	Ecoli growth	FGF22 binding	rRNA inh HTS	rRNA inh HTS OD600	rRNA inh HTS RFP	Compound
-1.2	6.2	4.0%	11.6	0.69	i	10.2	11.8	-1.8	CCOC(=O)CNC(=O)c1c2c(nc3ccccc13)CCCC2
/	0.8	/	/	/	i	-2.5	-29.9	5.2	CO[C@@H](CN(C)S(=O)(=O)c1ccc(F)cc1)[C@@H](C)CN([C@H](C)CO)S(=O)(=O)c1cccc(Cl)c1
-2.7	/	19.1%	/	0.689	/	/	/	/	COc1ccc(CCn2c(=O)c3cccnc3n(Cc3ccc([N+](=O)[O-])cc3)c2=O)cc1OC
-1.2	/	-3.3%	36.3	0.682	/	/	/	/	COC(=O)c1ccccc1NC(=O)Cn1nnc(-c2ccc(OC)cc2)n1
-2.1	2.2	/	-32.3	/	i	12.2	8.0	6.9	O=C(COc1ccccc1)N/N=C/c1ccc([N+](=O)[O-])o1
-1.2	/	-3.5%	-5.2	/	/	/	/	/	COc1ccc(CC(=O)Nc2nc3n(n2)C(c2ccccc2)CC(=O)N3)cc1OC (centres undefined)
9.9	/	?	/	0.821	/	/	/	/	Cc1ccc(NC2=Nc3ccccc3N3C2=Nc2c(c(C)nn2-c2ccccc2)C3c2ccc(O)c(O)c2)cc1 (centres undefined)
6.2	-1.2	/	/	/	i	9.8	5.2	2.2	CC(C)CCN1C(=O)c2ccccc2C1c1nnnn1C(C)C (centres undefined)

More results.
HNF4A DNA FP	MLL AF4-AF9 inh	Vif TR-FRET	ALR H2O2 inh	Ecoli growth	FGF22 binding	rRNA inh HTS	rRNA inh HTS OD600	rRNA inh HTS RFP	Compound
-0.4	-10.7	/	/	/	i	-21.5*	-16.8*	-3.5*	O=C1c2ccccc2C(c2nnnn2Cc2ccccc2)N1CCc1ccccc1F (centres undefined)
-1.2	8.6	26.4%	-3.5	0.661	i	8.7	10.4	-0.3	COc1ccc(S(=O)(=O)NCC2CCCN(Cc3ccccc3C)C2)cc1 (centres undefined)
-2.8	7.1	4.6%	-12.2	/	i	-1.2	-2.4	1.1	COc1ccc2ccccc2c1/C=N/NC(=O)c1cc(C)[nH]n1
-1.8	-2.4	-0.4%	/	0.706	i	17.2	18.4	-1.8	C=CCC1CCCC(=O)N2CCCC12 (centres undefined)
-0.9	-3.6	/	-10.3	/	i	6.1	6.4	8.9	CCN1C(=NCCOC)N[C@@H](c2cccs2)C(C(=O)OC)=C1C
6.4	/	18.0%	-2.8	0.714	/	/	/	/	O=C(c1ccccc1)N1CCN(Cc2ccccc2Br)CC1
3.4	/	6.6%	-4.7	0.665	/	/	/	/	Cc1cccc(NC(=O)c2cc(N3C(=O)CCC3=O)ccc2Cl)n1
/	-1.1	/	/	/	i	0.2	8.9	-0.2	C[C@H]1CN([C@@H](C)CO)C(=O)Cc2cc(NS(=O)(=O)c3ccc(Cl)cc3)ccc2O[C@@H]1CN(C)Cc1ccc(Cl)c(Cl)c1
/	4.1	/	/	/	i	-0.5	0.0	-0.8	C[C@@H]1CCCCO[C@H](CN(C)Cc2ccc3c(c2)OCO3)[C@@H](C)CN([C@@H](C)CO)C(=O)c2cc(NC(=O)CCC(F)(F)F)ccc2O1
-1.8	/	-4.1%	10.1	0.734	/	/	/	/	CC(C(=O)NC1CCCC1)N(C(=O)c1ccc(-c2ccccc2)[nH]1)c1ccccc1F (centres undefined)
-4.3	/	/	-11.1	0.683	/	/	/	/	O=C(NCC1CC1)c1onc(CSc2ccccc2)c1C(=O)NCC1CC1
